# Source: PubChem BioAssay (National Center for Advancing Translational Sciences (NCATS))
# gsp ag: gsp mutant agonism; gsp mutant cells, cAMP HTRF, 30 min; control for the full effect not named in the record; Potency, µM (top dose mostly 76.9 µM), without a hit: at the top dose activation (cAMP increase), hits mostly activators; 0.13% of 340,000 active; AID 624287; active = well fitted activation curve with a large enough effect; inconclusive = small, poorly fitted or top-dose-only effect, or another doubt; inactive = no such curve, though single readings can be large or run the other way; cell line not stated here;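 note: phosphodiesterase inhibitor Ro 20-1724 added with compounds to block cAMP breakdown; potency is the fitted concentration of half-maximal effect; nearly all actives have a fitted effect of over 60% in size; about a fifth of the inactives were tested at one dose only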
#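 Cells in DMEM/10% FBS with G418 were pretreated with compounds in DMSO plus […] (300 uM stock) for 30 min at 37C. cAMP was measured by HTRF (cAMP-d2 plus anti-cAMP antibody-K) after 30 min at room temperature.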
# PINK1 expr mod: modulators of PINK1 expression | PINK1 immunofluorescence, high-content cytometry, 24 h | Potency, µM (doses to about 76.6 µM), without a hit: at the top dose activation (PINK1 increase), hits mostly activators | 0.2% of 410,000 active; active = well fitted activation curve with a large enough effect; inconclusive = small, poorly fitted or top-dose-only effect; inactive = flat fitted curve, though single readings scatter; cell line not stated here;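 note: potency is the fitted concentration of half-maximal effect; % of control where 0% means no effect; nearly all actives have a fitted effect of over 65% in size; a mitochondrial uncoupler was the plate control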
#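 PINK1 protein level read as immunofluorescence by microplate cytometer in a fixed, stained stable cell line after 24 h exposure to five compound concentrations, with CCCP as control.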
# Menin-MLL FL inh: menin-MLL binding inhibition, fluorescein peptide; AID 1766; FP activity change, % at 61.4 µM; 290,000 tested, under 10 active; Fluorescence polarization, fluorescein-MLL peptide displacement from menin; inconclusive = falling polarisation curve, or a change in total fluorescence; inactive = total fluorescence flat and polarisation flat or rising; no compound was filed as active; the % refers to the polarisation; negative = inhibition;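 note: % of control where 0% means no effect; inhibitors lower the polarisation; unlabelled MLL peptide was the positive control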
# Sfp inh: Sfp phosphopantetheinyl transferase inhibition; Biochemical Sfp PPTase activity, qHTS; Potency, µM, inactives show max response, negative = inhibition, actives largely listed as inhibitors; 3.5% of 310,000 active; AID 1490; active = well fitted inhibition curve with a large enough effect; inconclusive = small, poorly fitted or top-dose-only effect, or another doubt; inactive = no such curve, though single readings can be large or run the other way;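 note: the enzyme is Sfp with the accession as filed and its product quenches rhodamine fluorescence; potency is the fitted concentration of half-maximal effect; 0% = enzyme reaction without inhibitor and -100% = no enzyme wells; top concentration of the series not given in the record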
#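 Fluorescence-quenching assay with 15 nM Sfp, 5 uM rhodamine-CoA and 12.5 uM BHQ-2-labelled ybbR peptide in pH 7.6 Hepes/MgCl2 buffer. Enzyme was pre-incubated with compound for 15 min at room temperature. Rate was taken from the 30-min fluorescence change (525/598 nm).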
# D2 ag: activates the human D2 dopamine receptor; DiscoveRx PathHunter D2 beta-arrestin, luminescence, 90 min; 100% = 57 uM dopamine signal; 0.084% of 360,000 active; AID 624465; activation, % (concentration not given with the values); P14416; in the data active = activation above about 40%; inconclusive = about 15% to 40%; inactive = below about 15%; note: compound concentration not given in the record; the text of the record calls up to 30% inactive
# Target sequence (P14416 whole entry, looked up): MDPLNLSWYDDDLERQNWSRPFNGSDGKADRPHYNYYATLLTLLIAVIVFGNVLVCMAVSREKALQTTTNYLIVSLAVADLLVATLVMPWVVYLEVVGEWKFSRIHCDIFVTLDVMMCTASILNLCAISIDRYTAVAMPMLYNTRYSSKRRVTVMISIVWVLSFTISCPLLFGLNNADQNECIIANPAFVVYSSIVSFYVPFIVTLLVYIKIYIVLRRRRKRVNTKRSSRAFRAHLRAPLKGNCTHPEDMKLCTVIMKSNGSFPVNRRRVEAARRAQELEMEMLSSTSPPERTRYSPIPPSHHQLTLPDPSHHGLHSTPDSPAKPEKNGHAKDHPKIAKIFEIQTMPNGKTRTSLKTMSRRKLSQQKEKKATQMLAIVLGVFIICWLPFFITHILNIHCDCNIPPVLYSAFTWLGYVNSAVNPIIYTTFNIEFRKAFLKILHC
#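 DiscoveRx PathHunter D2 beta-arrestin cells (2,100/well) attached overnight, then compound-stimulated 90 min at 37 C in HBSS/10 mM HEPES/0.1% Tween-20 buffer; beta-galactosidase complementation read by luminescence after 1 h at ambient temperature. Dopamine 57 uM final (EC100) as control.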
# ClpP mod: qHTS Assay for Activators of ClpP | purified B. subtilis ClpP, FRET peptide cleavage, 20 min | Potency, µM (doses to about 57.5 µM), for the others: at the top dose activity change, negative = active | 1.9% of 340,000 active; active = well fitted falling curve with a large enough effect; inconclusive = small, poorly fitted or top-dose-only effect; inactive = no such curve, though single readings can be large or run the other way; note: potency is the fitted concentration of half-maximal effect; the source files actives as falling curves though it sought activators and does not explain the sign; nearly all actives have a fitted effect of over 65% in size; many hits overshoot -100%
# Target sequence (P80244 whole entry, looked up): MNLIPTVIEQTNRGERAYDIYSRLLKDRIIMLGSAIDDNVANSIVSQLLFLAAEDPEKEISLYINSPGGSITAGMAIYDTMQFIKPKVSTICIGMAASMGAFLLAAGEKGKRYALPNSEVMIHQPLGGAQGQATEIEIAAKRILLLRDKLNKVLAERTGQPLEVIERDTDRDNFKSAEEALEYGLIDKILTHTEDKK
#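 ClpP 10 microg/mL final, pH 8 Tris/KCl buffer with BSA, glycerol, Tween-20; compound pinned in; FRET-FV substrate; RT 20 min; Ex320/Em430; ΔFRET vs ADEP 5.8 microM, DMSO, no enzyme.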
# gsp antagonist: antagonizes gsp, the McCune-Albright syndrome mutation | Potency, µM (highest dose often 76.9 µM), for inactives: at the highest dose activity change, negative = inhibition, actives largely listed as inhibitors | 0.4% of 340,000 active | gsp-mutant cells, cAMP HTRF, 30 min; control for the full effect not named in the record; active = falling curve of any shape with a large fitted effect; inconclusive = falling curve, mostly with a smaller effect; inactive = flat or rising curve; cell line not stated here;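 note: intracellular cAMP measured with PDE inhibitor Ro 20-1724 present during compound exposure; potency is the fitted concentration of half-maximal effect; % is set by controls: 0 for no effect and ±100 for the full control effect; nearly all actives have a fitted effect of over 65% in size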
#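 G418-selected cells were plated in DMEM/10% FBS for 16-24 h at 37C, then treated with compounds plus the PDE inhibitor […] (300 uM solution added) for 30 min at 37C. Intracellular cAMP was measured by HTRF after 30 min lysis at room temperature.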
# Numbers without * were called inactive; ? = inconclusive; . = no result given; & = joins results of further samples; [ ] = remark or other dose.
compound	gsp ag	PINK1 expr mod	Menin-MLL FL inh	Sfp inh	D2 ag	ClpP mod	gsp antagonist
CN1CC(=O)N2[C@H]3c4ccccc4OC[C@@H]3[C@H](c3ccccc3)[C@]2(C)C1=O	-11%	-1.0%	.	.	-3.3	-0.4%	3%
O=C(OCc1ccccc1)N1CCC2CC1c1ccc(-c3cccc(F)c3)cc12 (stereo not drawn)	.	0.2%	.	.	-5.3	-8.1%	.
Cc1oc(C(C)(C)C)c(CN2CCCC2)c1C(=O)O	27%	-1.1%	3.1	7%	-1.4	0.4%	9%
COc1ccc(CNC(=O)C2CCN(C(=O)c3ccco3)CC2)cc1	3%	0.7%	1.6	5%	-3.3	.	8%
O=C(NC(=S)Nc1cc([N+](=O)[O-])ccc1Cl)c1ccccc1	12%	?	-0.3	56µM*	-2.7	-0.8%	-10%
CCOc1ccc(NC(=O)CSc2nc(C3CC3)nc3ccccc23)cc1	-17%[15.4 µM]	3.8%	3.6	6%	2.6	.	-8%
CN(C)S(=O)(=O)Nc1ccc2c(c1)OCO2	6%	-3.1%[38.3 µM]	2.6	-6%	0.9	-0.5%	15%
CCCCCN(C(=O)CCC(=O)OC(C)C(=O)c1ccc(Cl)cc1)c1c(N)n(CCCC)c(=O)[nH]c1=O (stereo not drawn)	2%	-0.9%	.	.	-2.3	-0.5%	2%
O=C1Nc2ccc(Br)cc2/C1=N/N=C/C1=C(N2CCOCC2)C(=C\c2ccccc2)/CC1	-18%	1.1%	?	-5%	-7.0	-2.8%	-18%
O=C(/C=C/c1ccccc1)c1ccccc1O	-43%[inhibitor]	1.7%	-1.4&-0.5	8%&-13%	-4.6	5.2%	10%
CCc1ccc(CCN2C(=O)c3ccccc3C2=O)nc1	38%[15.4 µM]	-0.3%	2.5	8%	-0.8	.	7%
Cc1cnc(C(=O)OC(C(=O)c2ccccc2)c2ccccc2)cn1 (stereo not drawn)	18%	2.4%	.	.	-0.6	1.3%	-2%
Cc1cccc2cc(/C=N/NC(=O)c3ccncc3)c(Cl)nc12	-19%	1.1%	0.5	26%	-2.5	-2.7%	6%
Cc1cc(F)c(F)c(C(=O)N2CCC(C)CC2)c1Cl	-31%	1.3%	1.0	18%	1.4	0.3%	8%
Cc1nc(CN(C)C(=O)C2CCC(=O)N(CCc3cccc(F)c3)C2)cs1 (stereo not drawn)	-48%[inhibitor]	0.7%	.	21%	2.1	-0.4%	11%
CC1CCc2sc(C(=O)Nc3ccc(C(N)=O)cc3)cc2C1 (stereo not drawn)	3%[15.4 µM]	1.8%	12	9%	-2.5	.	-13%
O=C(N[C@@H](Cc1ccccc1)C(=O)O)c1ccc(C(F)(F)F)cc1	-13%	-1.1%	-3.6	14%	-2.8	2.8%	9%
O=C(CNC(=O)c1cccc(OC(F)F)c1)Nc1ccc(Cl)cc1	1%	2.3%	-7.3	1%	-1.5	.	-1%
CCOC(=O)c1cc[nH]c1CC(=O)NC	-2%	-0.2%	6.5	9%	5.5	0.3%	-3%
CCOC(=O)Cc1[nH]nc2c1C(Cc1ccccc1)C(C#N)=C(N)O2 (stereo not drawn)	20%	3.3%	3.8	8%	-4.3	.	-7%
Cc1csc(C(=O)O)c1NC(=O)c1c(Cl)cccc1Cl	9%	-1.2%	-0.8	5%	1.7	0.6%	16%
CC(C)C(=O)O/N=C(\N)c1ccc(Oc2ccc(Cl)cc2)c([N+](=O)[O-])c1	4%[15.4 µM]	0.5%	2.3	-13%	1.3	.	0%
Cc1ccc(COc2ccccc2-c2cc(C(=O)N/N=C/c3cccnc3)[nH]n2)cc1	1%[15.4 µM]	1.0%	1.7	-3%	1.4	.	-6%
COc1ccc(Cn2ccnc2)cc1Br	8%	1.8%	3.8	?	0.9	-0.1%	4%
CCOc1ccc(CN(C(=O)c2ccccn2)c2ccc(OC)c(Cl)c2)cc1	23%[15.4 µM]	9.5%	4.4	-5%	-5.5	-0.7%	-1%
Cc1cc(C)n(-c2cccc(CN3CCC(CO)(Cc4ccccc4)CC3)c2)n1	-15%	1.4%	-0.8	0%	-5.7	.	1%
CSc1nc(N)n2nc(-c3ccc(Cl)cc3)cc2n1	18%[15.4 µM]	6.4%	3.4	-4%	-6.8	-0.3%	-9%
COc1cc(C(=O)NC2CC3CCCC(C2)N3C2CC2)cc(OC)c1OC (stereo not drawn)	11%	-0.1%	1.3	2%	-2.3	-25%	13%
CCCCC(=O)OCc1nc2ccccc2s1	-7%[15.4 µM]	5.1%	9.5	3%	-11	16µM*	0%
O=C(NCCC(=O)N1CCCCCCC1)c1ccc(Br)cc1	1%	2.4%	.	.	-3.0	1.4%	13%
COc1cccc(-c2nc(CS(=O)(=O)CC(=O)Nc3cc(F)ccc3F)c(C)o2)c1	-58%[inhibitor]	1.1%&2.5%	.	3%	-3.1	-14%&-21%	1%
CN(C)C(=O)c1ccc(-c2cc(NCc3cccnc3)ncn2)cc1	.	0.7%	-11	23%	.	.	.
O=C1CC(=O)N(Cc2cccs2)C(=O)N1	4%	-0.5%	?	-22%	-1.5	4.4%	-8%
COc1ccc(CNc2ncnc3cc(OC)c(OC)cc23)cc1	21%	1.3%	-0.1	1%	-1.3	-9.5%	5%
CCc1ccc2c(c1)cc(CN(Cc1ccco1)C(C)=O)c1nnnn12	2%	-1.9%	3.9	3%	11	.	2%
Cc1cc(=O)cc(C)n1-c1ccc2c(c1)nc(C)n2-c1ccccc1	18%	.	-1.6	7%	0.9	-1.7%	-26%
CC(=O)C1=C(O)C(=O)N(CCc2c[nH]c3ccccc23)C1c1ccccc1 (stereo not drawn)	?	-0.5%	-1.6	20%	-3.9	-0.3%	37%[activator]
Cc1sc2nc(CN3CCCC3)nc(N3CCN(C(=O)c4ccco4)CC3)c2c1C	?	5.2%	12	5%	-0.3	.	-16%
CN(C)C(=S)SCC(=O)Nc1ccc(Cl)cc1Cl	-4%	4.7%	2.2	-8%	0.2	-1.5%	-3%
Cc1ccc(-n2nnnc2SCC(=O)N2CC(=O)Nc3ccccc32)cc1	13%	-0.7%	9.9	-15%	-0.3	1.1%	-15%
Cc1ccccc1CNC(=O)C(=O)NCCC1CCCCN1S(=O)(=O)c1ccccc1 (stereo not drawn)	11%	-2.6%	.	.	-0.9	-1.8%	-10%
CC1CCN(C(=O)Cn2c(=O)n(CCCC(=O)NCc3ccco3)c(=O)c3sccc32)CC1	-7%[15.4 µM]	3.0%	-5.2	10%	-4.4	2.0%	3%
O=C(Nc1nc(-c2ccc([N+](=O)[O-])cc2)cs1)c1c(F)cccc1F	-86%[inhibitor]	7.6%	-6.9	13%	3.4	1.2%	-10%
CC1(NC(=O)c2ccccc2)CCN(CCc2cccs2)C1=O (stereo not drawn)	.	2.1%	.	.	-3.2	0.0%	13%
O=C(CC(C(=O)O)c1c[nH]c2ccccc12)c1ccccc1 (stereo not drawn)	-27%	0.1%	?	20%	-0.8	.	-14%
Cc1cc(C)nc(N/N=C/c2ccccc2OCc2cccc(Br)c2)n1	16%[15.4 µM]	5.9%	8.5	2%	-0.4	?	?
O=C(c1ccccc1)C1N=NCC1c1ccc(Cl)cc1 (stereo not drawn)	-17%	0.8%	.	.	-2.4	.	-11%
CN(CC(=O)Nc1ccc(F)cc1)C(=O)c1cccc(S(=O)(=O)N2CCN(c3ccccc3)CC2)c1	-8%[15.4 µM]	1.2%	.	-6%	-1.9	-0.3%	-15%
CC(NC(=O)C(=O)c1cn(CC(=O)N2CCCC2)c2ccccc12)c1ccccc1 (stereo not drawn)	5%	3.9%	.	.	1.4	0.9%	.
Cn1c(COc2ccc(Cl)cc2)nnc1SCc1ncc(-c2ccccc2)o1	10%	-2.9%	2.0	1%	0.1	-3.6%	-28%
O=C(NC(=S)Nc1cccnc1Cl)c1ccc(Cl)cc1	27%	3.1%	-0.7	?	-4.2	.	-11%
Cc1ccc(CNC(=O)CN2CCN(c3ccc(F)cc3)CC2)cc1	0%	-0.5%	-5.2	4%	0.5	.	1%
CCOc1ccc(/C=N/OCC(=O)NC(c2ccccc2)c2ccccc2)cc1	2%	14%	5.0	-10%	-3.1	-0.6%	?
CC(=O)Nc1ccc(SCC(=O)c2ccc(Br)s2)cc1	9%[15.4 µM]	1.4%	-2.4	50µM*	-0.3	.	8%
Cc1ccc(C(=O)O/N=C(\N)c2ccccn2)c(Cl)c1	-1%	-0.6%	-1.0	14%	?	-0.3%	4%
CCC(C)[C@H]1CN=C(N)N1CCc1cc(C(F)(F)F)cc(C(F)(F)F)c1 (stereo partly drawn)	-2%	-1.3%	-0.2	2%	-5.5	1.7%	8%
O=C1[C@H]2[C@@H](c3ccccc3)N[C@]3(CCCN(Cc4ccc(Br)cc4)C3=O)[C@H]2C(=O)N1Cc1ccccc1	-29%	1.0%	.	.	-10	-0.6%	.
Cc1cc(-c2ccccc2)nc(N/N=C/c2ccc(N(C)C)cc2)n1	-15%	1.8%	.	.	-3.5	0.5%	?
CCCCOc1ccc(C(C)(O)CCN2CCOCC2)cc1 (stereo not drawn)	-2%	-0.8%	-1.2	6%	-0.3	-2.7%	1%
Cc1ccc(NC(=S)NCCSc2ccc(Cl)cc2)c(C)c1	-20%	3.9%	2.2	?	4.5	3.4%	-6%

# The results go on:
compound	gsp ag	PINK1 expr mod	Menin-MLL FL inh	Sfp inh	D2 ag	ClpP mod	gsp antagonist
N#CC1=C(N)OC2=C(CN(Cc3ccccc3)C/C2=C\c2cccnc2)C1c1cccnc1 (stereo not drawn)	5%	2.2%	?	-23%	1.6	-4.1%	-12%
CS(=O)(=O)c1ccc(C(=O)OCC(=O)NC(=O)C2COc3ccccc3O2)cc1[N+](=O)[O-] (stereo not drawn)	-8%[15.4 µM]	4.3%	.	.	0.5	0.4%	2%
CCCCn1c(N)c(N(CCOC)C(=O)CSc2nnc(-c3ccco3)n2CC)c(=O)[nH]c1=O	5%	1.6%	.	.	-2.0	0.7%	12%
CCC1(CC)NC(=O)N(CC(=O)OCC(=O)c2cc(C)c(C)cc2C)C1=O	-7%	0.4%	.	.	-4.2	1.3%	13%
